Insulin prom inh – TRM-6 insulin promoter activity inhibition. inhibition, % at 2 µM. 0.9% of 130,000 active. TRM-6 cells (human fetal islet line), insulin promoter-eGFP reporter, imaging; reporter expression induced with tamoxifen;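 active = inhibition above the mean plus 3 SD, with well images judged a real hit on visual review, cut at about 60% in these data, passing the limit was not always enough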
GALR2 ag – activates the human galanin receptor 2; O43603; GALR2-expressing cells, agonist activation read-out; activation, %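 (tested at 5 µM)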; 0.48% of 140,000 active; AID 803;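 active = above mean plus 3 SD of all compounds, about 5% in these data, not always enough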;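 also: 0% = vehicle buffer wells and 100% = reference agonist at full effect; tested in CHO reporter cells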
Target sequence (O43603 whole entry, looked up): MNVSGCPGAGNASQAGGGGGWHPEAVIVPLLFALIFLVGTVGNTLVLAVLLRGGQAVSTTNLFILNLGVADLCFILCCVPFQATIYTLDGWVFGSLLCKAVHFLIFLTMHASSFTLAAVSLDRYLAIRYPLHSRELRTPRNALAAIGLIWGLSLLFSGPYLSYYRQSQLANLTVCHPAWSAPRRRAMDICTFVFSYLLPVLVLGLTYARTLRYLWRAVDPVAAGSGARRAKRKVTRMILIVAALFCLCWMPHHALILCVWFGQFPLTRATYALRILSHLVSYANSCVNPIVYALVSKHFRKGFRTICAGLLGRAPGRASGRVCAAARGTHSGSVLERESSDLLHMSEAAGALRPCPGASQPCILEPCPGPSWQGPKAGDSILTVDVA
PKD1 inh – inhibitors of human PKD1 kinase | PKD1 kinase fluorescence polarization assay | AID 797 | 0.056% of 200,000 active | Q15139 | inhibition, %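 (about 10 µM by stock and volumes)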;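 active = inhibition of 50% or more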;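 also: controls were vehicle for no effect and a reference inhibitor for full effect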
RGS16-Gao HTS – regulators of human RGS16-Galphao interaction | O15492+P09471 | bead-based flow cytometry RGS16-Galphao binding, fluorescence; actives lie on both sides | binding response (% of control), % at 10 µM | 0.38% of 220,000 active;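 active = below 25% or above 175%, edge rows of some plates excepted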;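 also: Galphao activated by GDP with aluminum fluoride before binding; 100% = wells without compound and 0% = beads without RGS; some results beyond the cut were filed as inactive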
Target sequence (O15492 whole entry, looked up): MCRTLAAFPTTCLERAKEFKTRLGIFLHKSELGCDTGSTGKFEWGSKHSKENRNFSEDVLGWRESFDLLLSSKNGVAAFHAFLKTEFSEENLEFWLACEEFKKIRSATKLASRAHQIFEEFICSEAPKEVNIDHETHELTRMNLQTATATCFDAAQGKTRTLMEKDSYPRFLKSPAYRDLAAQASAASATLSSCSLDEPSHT
Target sequence (P09471 whole entry, looked up): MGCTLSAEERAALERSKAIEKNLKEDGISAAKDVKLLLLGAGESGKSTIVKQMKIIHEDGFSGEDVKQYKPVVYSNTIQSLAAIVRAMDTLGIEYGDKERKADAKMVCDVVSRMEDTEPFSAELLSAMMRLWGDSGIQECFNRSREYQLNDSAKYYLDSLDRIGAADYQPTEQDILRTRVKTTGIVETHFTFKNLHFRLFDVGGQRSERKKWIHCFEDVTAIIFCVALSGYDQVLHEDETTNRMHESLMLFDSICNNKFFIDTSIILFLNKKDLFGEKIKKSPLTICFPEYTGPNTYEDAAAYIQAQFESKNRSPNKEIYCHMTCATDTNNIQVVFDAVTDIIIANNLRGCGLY
HSV replic up – HSV replication enhancement; HSV replication augmentation in cells, fold increase; maximum fold increase; 0.005% of 220,000 active; AID 1956;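 active = peak rise of 1.5-fold or more in the series; tested in PC3 cells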;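 also: first round at 10 µM; read as green reporter fluorescence; hits show the peak of a series up to 25 µM; 1 = signal of infected wells without compound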
Insulin prom inh cell count – recorded beside Insulin prom inh, whose call it bears; normalized cell count, %; measured here: cell count, toxicity; reference of the scale not given here;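 cells exposed to compound for 48 h; stained nuclei by imaging scaled within each plate; lower means fewer cells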
HSV replic up primary fold – also measured in HSV replic up; calls as there; fold increase; compound at 10 µM; measured here: primary screen fold increase 10 uM; tested in PC3 cells;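 GFP signal in the first replicate; 1 = infected wells without compound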
Numbers without * were called inactive; i = inactive; . = not tested or not shown.

Molecule | Insulin prom inh | Insulin prom inh cell count | GALR2 ag | PKD1 inh | RGS16-Gao HTS | HSV replic up | HSV replic up primary fold
c1cc2nnnn2nc1N1CCCCC1 | . | . | -1.9 | 1 | 100 | i | 0.86
CCn1c(CSc2nc3ccccc3s2)n[nH]c1=S | 9 | 103 | -3.1 | 4 | 95 | i | 0.99
O=S(=O)(c1cccc(-c2nc3ccccc3s2)c1)N1CCCC1 | -20 | 118 | -2.4 | -7 | 89 | i | 1.1
Cc1cc(C)n(-c2ccc(C(=O)OCC(=O)NCc3ccc(F)cc3)cc2)n1 | . | . | -0.8 | 2 | 103 | i | 1.3
COc1cccc2c1OC[C@@H](CO)[C@H]2N(C)C(=O)Nc1ccc(Cl)cc1 | . | . | -2.8 | 1 | 99 | i | 1
Cc1ccc(-c2noc(CCC(=O)N(C)c3ccccc3C)n2)cc1 | -277 | 44 | -2.3 | -3 | 102 | i | 0.95
CCOC(=O)c1cc(CO)cc(C(=O)OCC)c1 | . | . | . | . | 103 | i | 0.95
Fc1cccc(Cl)c1/C=N/n1c(-c2cccnc2)n[nH]c1=S | -33 | 104 | . | -5 | 1 | i | 1
Brc1ccc(CSc2nnc(Cc3c[nH]c4ccccc34)o2)cc1 | -125 | 133 | -1.1 | -2 | 102 | . | .
O=C(Oc1cccc2cccnc12)c1cccc(-n2cnnn2)c1 | 33 | 106 | -1.1 | -10 | 71 | i | 0.83
COc1ccc(C2CCCN2C(=O)c2cccs2)cc1 (configuration not stated) | . | . | -0.6 | 8 | 91 | i | 0.93
CC(=O)NC(Cc1c[nH]c2ccccc12)C(=O)O (configuration not stated) | . | . | . | -4 | 91 | i | 1
CCOc1cc(C2C(C(=O)OC(C)C)=C(C)NC3=C2C(=O)CCC3)cc([N+](=O)[O-])c1O (configuration not stated) | -7 | 54 | . | 7 | 99 | i | 1
CCN(CC(F)(F)C(F)F)S(=O)(=O)c1ccc(NC(=O)OC)cc1 | -9 | 92 | -1.4 | 0 | 106 | i | 0.94
O=C1CSC(c2ccccc2Br)N1c1ccc(Cl)cn1 (configuration not stated) | . | . | . | -2 | 102 | i | 0.98
Cc1cc(C)n2c(-c3ccccc3Cl)nnc2n1 | 15 | 121 | -0.3 | -6 | 98 | i | 0.93
O=C(CC1SCCNC1=O)Nc1cccc([N+](=O)[O-])c1 (configuration not stated) | . | . | . | . | 100 | i | 1.1
COc1ccc(Nc2nc(C(=O)NCc3ccco3)cs2)cc1 | . | . | . | . | 100 | i | 0.89
O=C(C1CCC1)N1CCc2cc(S(=O)(=O)NC3CCCc4ccccc43)ccc21 (configuration not stated) | 38 | 133 | -3.9 | 1 | 94 | i | 0.87
CCC(C(=O)Nc1ccncc1)c1ccccc1 (configuration not stated) | 22 | 159 | -0.4 | -9 | 105 | i | 0.95
CC(C)(C)c1nc2scc(-c3ccc(Cl)cc3)c2c(=O)o1 | 0 | 153 | -0.1 | -3 | 98 | i | 0.92
OCCN1CCN(C(=S)c2ccc(Cl)c(Cl)c2)CC1 | 0 | 90 | -1.7 | -7 | 58 | i | 0.98
Cc1ccsc1/C=C1/SC(N2CCOCC2)=NC1=O | 30 | 67 | -0.5 | -8 | 102 | i | 0.99
COc1ccc(OC)c(NC(=O)CCN2CCN(Cc3ccccc3)CC2)c1 | . | . | -0.2 | 7 | 102 | i | 0.86
O=C(O)C(CCCCN1C(=O)c2ccccc2C1=O)N1C(=O)c2ccccc2C1=O (configuration not stated) | 0 | 61 | 0.0 | 12 | 105 | i | 1.1
CC(Nc1cccc(F)c1)C(=O)Nc1ccc(S(N)(=O)=O)cc1 (configuration not stated) | . | . | . | 5 | 103 | i | 1
Cn1c(NC(=O)c2ccc(S(=O)(=O)N3CCCCC3)cc2)cc(=O)n(C)c1=O | 38 | 154 | -0.9 | 1 | 37 | i | 1
COc1ccc(CCNc2nc(C)cc(=O)[nH]2)cc1OC | -413 | 92 | -0.6 | -3 | . | i | 0.86
CSC1=N/C(=C\c2ccc(Br)o2)C(=O)S1 | -14 | 62 | 0.0 | 2 | 103 | i | 0.98
O=C(CC(c1cccs1)S(=O)(=O)c1ccccc1)c1ccc(F)cc1 (configuration not stated) | . | . | -1.5 | -18 | 104 | i | 1.1

Molecule | Insulin prom inh | Insulin prom inh cell count | GALR2 ag | PKD1 inh | RGS16-Gao HTS | HSV replic up | HSV replic up primary fold
CC1CCCCN1C(=O)CCc1nnc(Cc2c[nH]c3ccccc23)o1 (configuration not stated) | -35 | 34 | . | -4 | 111 | i | 0.92
CCCCOC(=O)c1ccccc1N1C(=O)C2C3CCC(C3)C2C1=O (configuration not stated) | -93 | 123 | -0.3 | -5 | 103 | i | 0.96
O=C(c1ccc(CSc2ccc(Cl)cc2)cc1)N1CCOCC1 | -32 | 122 | . | -1 | 95 | i | 1.1
Cc1ccc(NC(=O)CSc2nc3[nH]ncc3c(=O)[nH]2)c(C)c1 | . | . | . | 8 | 99 | i | 1.2
Cc1cc(CNC(=O)CC2C(=O)NCCN2Cc2ccc(-c3ccccc3)cc2)nn1C (configuration not stated) | . | . | . | 0 | 103 | i | 0.99
COC(CCN(C)C)(c1ccccc1)c1ccccc1 | 15 | 126 | -1.7 | -9 | 96 | i | 0.78
Cc1ccc[n+](-c2nc([O-])sc2/C=N/Nc2ccc([N+](=O)[O-])cc2)c1 | . | . | . | . | 99 | i | 0.71
CCOc1ccc(OCC(=O)Nc2nccs2)cc1 | -6 | 184 | . | -1 | 104 | i | 1.1
Cc1ccc2[nH]c3c(NCc4ccco4)ncnc3c2c1 | 85* | 149* | -0.9 | 0 | 114 | i | 1.1
COc1ccc(/C=N/NS(=O)(=O)c2ccc(C)cc2)cc1OC(=O)c1ccc(C)cc1 | -17 | 115 | -1.5 | -2 | 103 | i | 0.96
Cc1cccc(NC2=CC(=O)CC(C)(C)C2)c1C | . | . | . | 1 | 101 | i | 0.95
CCn1c(SCC(=O)Nc2ccccc2C)nc2nc3c(cc2c1=O)COC(C)(C)C3 | . | . | . | . | 92 | i | 0.97
O=C(Nc1ccon1)c1csc2ccccc12 | -33 | 120 | -1.2 | -5 | 98 | i | 0.99
O=C(Nc1nc(-c2ccc(F)cc2)cs1)C1CCCO1 (configuration not stated) | 16 | 98 | -2.2 | 1 | 93 | i | 1
COc1ccc(C2=NOC(C(=O)Nc3cc(Br)ccc3O)C2)cc1OC (configuration not stated) | 74* | 32* | 21* | 9 | 105 | i | 0.93
CCN(CC(=O)Nc1cc(Cl)ccc1C)c1ncnc2sc(C)c(C)c12 | 0 | 36 | -2.2 | 4 | 109 | i | 0.97
O=C(CSc1n[nH]c(-c2cccs2)n1)N1CCCc2ccccc21 | -21 | 114 | -3.2 | -1 | 102 | i | 0.95
CN1CCN(C(=O)c2ccc(CS(=O)(=O)c3c(Cl)cccc3Cl)o2)CC1 | . | . | 0.3 | -8 | 99 | i | 1
Cn1c(SCC(=O)NCc2ccccc2)nc2ccccc21 | . | . | -1.1 | 5 | 100 | . | .
Cc1ccc(S(=O)(=O)N2CCC(N3CCCCCC3)CC2)cc1 | . | . | -2.0 | -9 | 103 | i | 0.92
Cn1c(CNC(=O)Nc2ccccc2Cl)nnc1SCc1ccccc1 | . | . | -1.9 | -9 | 97 | i | 0.91
CCOC(=O)c1ccc(NCc2nc3ccccc3[nH]2)cc1 | . | . | -2.6 | -3 | 99 | i | 0.96
COc1cc(O)c(C(CCN2CCOCC2)c2ccc3c(c2)OCO3)c(OC)c1 (configuration not stated) | . | . | . | . | 99 | i | 1.1
Nc1ccccc1Sc1ccc(C(=O)c2ccccc2C(=O)O)cc1[N+](=O)[O-] | . | . | . | . | 98 | i | 1.4
NC(=O)CSc1nc2c(sc3ccccc32)c(=O)n1CCCC(=O)NCC1CCCO1 (configuration not stated) | . | . | . | . | 99 | i | 0.93
Cn1cc(C2CC(c3ccccc3)=NN2C(=O)c2ccccc2)c2ccccc21 (configuration not stated) | 3 | 98 | 0.4 | 10 | 102 | i | 0.72
CCC1=Nc2cc(C(=O)NCC3CCCO3)ccc2Sc2ccc(Br)cc21 (configuration not stated) | -22 | 106 | . | -5 | 103 | i | 0.76
Cn1c(OCc2cccnc2)nc2c1c(=O)n(Cc1ccccc1)c(=O)n2C | 33 | 140 | -1.5 | 1 | 117 | i | 0.92
COCCCNCCCCSc1ccc(Cl)cc1 | 32 | 118 | -0.5 | -3 | 100 | i | 0.95
Cc1cc(NC(=O)c2ccc(Br)c(S(=O)(=O)N3CCCC3)c2)no1 | 14 | 99 | -1.2 | -2 | 104 | i | 0.91

SMILES	Insulin prom inh	Insulin prom inh cell count	GALR2 ag	PKD1 inh	RGS16-Gao HTS	HSV replic up	HSV replic up primary fold
CSc1cccc(CN2CCCC(CO)(Cc3cccc(Cl)c3)C2)c1 (configuration not stated)	-17	151	.	-4	111	i	0.92
COc1ccc(NS(=O)(=O)c2ccc(N3CCOCC3)c(NC(=O)c3cccc(F)c3)c2)cc1	0	136	-0.6	-3	102	i	0.81
O=C(CN1CCc2ccccc21)NC(=O)NC1CCCCC1	.	.	.	.	103	i	0.8
Cc1ccccc1S(=O)(=O)c1c(C)cc(C)n(C(C)C)c1=O	-12	120	-3.0	3	98	i	1.1
O=c1[nH][nH]cc1C=Nc1cc(Cl)ccc1O	0	79	.	-3	108	i	0.87
COc1ccc(N(CC(=O)N2CCN(c3ccc(F)cc3)CC2)S(=O)(=O)c2c(C)n[nH]c2C)cc1	-36	122	.	-5	106	.	.
CCC(=O)N1N=C(c2ccc(C)o2)CC1c1ccc(Br)cc1 (configuration not stated)	.	.	-0.1	-5	79	i	1.1
CCCCN(CCCC)S(=O)(=O)c1ccc(SCC(=O)OCC)c([N+](=O)[O-])c1	23	118	-3.7	-5	98	i	0.95
Cc1ccc(C(c2c(C)n(C)n(-c3ccccc3)c2=O)c2c(C)n(C)n(-c3ccccc3)c2=O)s1	.	.	.	-14	100	i	0.94
CC(C)C(C(=O)C=[N+]=[N-])N1C(=O)c2ccccc2C1=O (configuration not stated)	-24	65	-0.5	-16	105	i	1
Cc1noc(NS(=O)(=O)c2ccc(N3CC(O)=C(c4ccccc4)C3=N)cc2)c1C	.	.	-1.7	-17	103	i	1
CCOC(=O)c1c(NC(=O)C2CC2)sc2c1CC(C)(C)OC2	.	.	.	.	97	i	0.86
CC(=O)c1cccc(NC(=O)c2ccc(-c3ccccc3[N+](=O)[O-])o2)c1	34	128	0.2	12	98	i	0.91
Cc1ccsc1C(=O)NNC(=O)C1C2C=CC(C2)C1C(=O)O (configuration not stated)	.	.	-0.4	1	110	i	0.9
Cc1nc(SC(C(=O)c2ccccc2)c2ccccc2)n[nH]1 (configuration not stated)	18	138	-2.7	-10	97	i	1.2
CC(=O)c1ccc(N(C)C)c2c(N(C)C)cccc12	46	77	-2.2	4	106	i	0.99

Some of the entries so far, with each value named.
COc1ccc(N(CC(=O)N2CCN(c3ccc(F)cc3)CC2)S(=O)(=O)c2c(C)n[nH]c2C)cc1
  Insulin prom inh = -36	Insulin prom inh cell count = 122	GALR2 ag = .	PKD1 inh = -5	RGS16-Gao HTS = 106	HSV replic up = .	HSV replic up primary fold = .
CCC(=O)N1N=C(c2ccc(C)o2)CC1c1ccc(Br)cc1 (configuration not stated)
  Insulin prom inh = .	Insulin prom inh cell count = .	GALR2 ag = -0.1	PKD1 inh = -5	RGS16-Gao HTS = 79	HSV replic up = i	HSV replic up primary fold = 1.1
CCCCN(CCCC)S(=O)(=O)c1ccc(SCC(=O)OCC)c([N+](=O)[O-])c1
  Insulin prom inh = 23	Insulin prom inh cell count = 118	GALR2 ag = -3.7	PKD1 inh = -5	RGS16-Gao HTS = 98	HSV replic up = i	HSV replic up primary fold = 0.95
Cc1ccc(C(c2c(C)n(C)n(-c3ccccc3)c2=O)c2c(C)n(C)n(-c3ccccc3)c2=O)s1
  Insulin prom inh = .	Insulin prom inh cell count = .	GALR2 ag = .	PKD1 inh = -14	RGS16-Gao HTS = 100	HSV replic up = i	HSV replic up primary fold = 0.94

Screening data deposited in PubChem by several laboratories.
